NPR1 antag: Natriuretic polypeptide receptor (hNpr1) antagonism - Primary qHTS | AID 1347048, 2019 | 76,000 compounds, 1.6% hits | HEK293 hNpr1 GloSensor cGMP, ANP-stimulated luminescence | Potency, µM (series often up to 46.3 µM), without a hit: top-dose activity change, negative = inhibition, actives largely listed as inhibitors; active = well fitted inhibition curve with a large enough effect; inconclusive = small, poorly fitted or top-dose-only effect; inactive = no such curve, though single readings can be large or run the other way;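 also: nearly all actives have a fitted effect of over 60% in size; nearly all hits also lower the signal before the agonist is added; a reference antagonist and vehicle were the controls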
Target sequence (P16066 whole entry, looked up): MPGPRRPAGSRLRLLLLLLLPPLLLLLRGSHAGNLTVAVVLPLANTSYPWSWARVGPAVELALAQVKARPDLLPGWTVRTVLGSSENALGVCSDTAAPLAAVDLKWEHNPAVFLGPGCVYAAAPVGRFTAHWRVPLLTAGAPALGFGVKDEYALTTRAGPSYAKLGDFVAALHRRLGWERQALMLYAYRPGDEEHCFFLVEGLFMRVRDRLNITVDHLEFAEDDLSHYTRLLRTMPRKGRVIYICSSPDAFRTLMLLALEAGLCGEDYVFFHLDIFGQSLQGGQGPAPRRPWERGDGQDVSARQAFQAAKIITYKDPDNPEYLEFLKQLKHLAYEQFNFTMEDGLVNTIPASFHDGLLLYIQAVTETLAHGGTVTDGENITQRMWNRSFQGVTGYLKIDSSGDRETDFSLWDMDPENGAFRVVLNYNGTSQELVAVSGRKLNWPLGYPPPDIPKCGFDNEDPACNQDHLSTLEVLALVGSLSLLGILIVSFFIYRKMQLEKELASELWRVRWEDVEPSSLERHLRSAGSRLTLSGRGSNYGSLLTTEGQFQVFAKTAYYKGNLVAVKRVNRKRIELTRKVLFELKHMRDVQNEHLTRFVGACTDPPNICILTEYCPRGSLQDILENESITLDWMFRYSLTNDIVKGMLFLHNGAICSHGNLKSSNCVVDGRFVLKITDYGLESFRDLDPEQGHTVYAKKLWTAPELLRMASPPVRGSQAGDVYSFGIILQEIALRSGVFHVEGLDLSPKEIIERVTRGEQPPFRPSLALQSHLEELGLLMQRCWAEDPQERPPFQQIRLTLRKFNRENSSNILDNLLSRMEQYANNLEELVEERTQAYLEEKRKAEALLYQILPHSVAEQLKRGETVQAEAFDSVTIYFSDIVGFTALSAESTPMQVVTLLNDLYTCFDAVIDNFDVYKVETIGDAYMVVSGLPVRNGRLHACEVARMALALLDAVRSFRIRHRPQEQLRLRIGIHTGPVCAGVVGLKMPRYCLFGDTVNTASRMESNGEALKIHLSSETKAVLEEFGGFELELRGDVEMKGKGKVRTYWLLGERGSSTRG
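Compound pre-incubated 30 min at room temperature on GloSensor-loaded HEK293 cells stably carrying hNpr1 and the pGS-40F cGMP biosensor. Stimulation uses hNppA at 0.1 nM final; luminescence is taken at baseline and 20 min post-agonist.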
* hit, by the source's call; ? = inconclusive; [ ] = dose if it differs, or a comment. % is scaled to controls: 0 for no effect and ±100 for the full control effect; potency is read from the fitted curve at half-maximal effect.

SMILES	NPR1 antag
O=C(CCC1CCN(S(=O)(=O)c2ccccc2)CC1)NCc1ccc(F)cc1	-25%
O=C(O)c1ccc2c(c1)CC(=O)N2Cc1ccc(F)cc1	1%
Cc1nc(-c2ccccc2OC2CN(S(=O)(=O)Cc3ccccc3F)C2)no1	0%
COc1ccc(-c2cc(N3CCCN(C(=O)Cc4cccc(OC)c4)CC3)n[nH]2)cc1	1%
COCCN1CCC(N2CCN(S(=O)(=O)c3cccc(C)c3)CC2)C1=O (stereo not drawn)	-10%
O=C(Cc1ccccc1)NC1CCN(C(=O)N2CC3CC(C2)[C@H]2CCCC(=O)N2C3)CC1 (stereo partly drawn)	1%
O=C(c1cccc(N2CCNC2=O)c1)N1CC(=O)N(C2CCCCC2)CC(OCc2ccccc2)C1 (stereo not drawn)	-1%
CN1CCOc2c(C(=O)NCCC(N)=O)cc(-c3ccccc3O)cc21	5%[70.6 µM]
Cc1cc(-c2cc3c(cn2)CN(Cc2ccccn2)CCN3)ccn1	2%[70.6 µM]
Cc1nccn1Cc1nnc(C2CCCN(S(=O)(=O)C3CC3)C2)n1C (stereo not drawn)	-2%
Cc1ccc2c(C(=O)NCCc3cccnc3)cc(NC(=O)C(C)C)cc2n1	-1%
COc1cccc(C(=O)N2CCC(N3C[C@H](O)C[C@H]3C(=O)NCCN3CCCC3)CC2)c1	4%
CC(C)(Oc1nn(CC2CCOCC2)c2ccccc12)C(=O)NCCc1ccccc1	-10%[70.6 µM]
CNC(=O)CCC[C@@H]1[C@H]2CCCN3CCC[C@@H](CN1C(=O)NCCc1ccccc1)[C@@H]23	0%
Cc1cccc(C(=O)N2C(C(=O)NCC3CCCO3)COC23CCC(C)CC3)c1 (stereo not drawn)	-3%
COCCn1nc2n(c1=O)CCN(C(=O)COc1ccc(F)cc1)CC2	4%
COCC(=O)NC[C@@H]1C=C(C)[C@H](CC(=O)N(C)Cc2ccccc2)C[C@H]1C(C)C	-1%[70.6 µM]
COc1ccc(S(=O)(=O)N2CCC3(CC2)CC(OCC2CC2)CCO3)cc1 (stereo not drawn)	-7%
C=CCCC(CN1CCSCC1)Oc1nccc(C)n1 (stereo not drawn)	-7%
CN1CCCCCCN(S(=O)(=O)c2cccs2)[C@H]2CCC[C@H]2C1=O	-2%
COc1ccc(CCNC(=O)CCn2ccn3nc4c(c3c2=O)CCCC4)cc1OC	2%
Cc1nc(C(C)C)sc1C(=O)N(C)Cc1cc(C2CC2)n[nH]1	3%
CCCn1cc(-c2ccncc2)cc1C(=O)Nc1ccccc1C	4%
CC(C)(O)CCc1ccc(C(=O)N2CCOc3ccc(Cl)cc3C2)cc1	-9%
Cn1ccnc1CNC(=O)C[C@@H]1C[C@H]2O[C@H](CNCc3ccccc3C(F)(F)F)[C@@H](O)[C@H]2O1	6%

For convenience, some entries already given.
SMILES	NPR1 antag
O=C(CCC1CCN(S(=O)(=O)c2ccccc2)CC1)NCc1ccc(F)cc1	-25%
O=C(O)c1ccc2c(c1)CC(=O)N2Cc1ccc(F)cc1	1%
Cc1nc(-c2ccccc2OC2CN(S(=O)(=O)Cc3ccccc3F)C2)no1	0%
COc1ccc(-c2cc(N3CCCN(C(=O)Cc4cccc(OC)c4)CC3)n[nH]2)cc1	1%

(cont.)
SMILES	NPR1 antag
O=C(Nc1ccc([C@H]2OCC(=O)N(C3CCOCC3)[C@@H]2CO)cc1)c1ccc(F)c(Cl)c1	1%
O=C(NCc1ccnc2[nH]ccc12)c1ccccc1	1%[70.6 µM]
Cc1ccc(CN2CC[C@H]3C(=O)NCCCCCN(Cc4cccnc4)[C@@H]3C2)o1	5%
CC(C)(C)c1cc(CC2(NCc3ccc(Cl)cc3)COC2)no1	2%[70.6 µM]
Cc1ccc(-n2cccn2)c(-c2nccn2-c2ccc(C(N)=O)cc2)c1	0%
Cn1nccc1C(=O)N1CCCCCCNC(=O)[C@@H]2C[C@@H](c3nc(-c4cccnc4)no3)C[C@@H]21	-21%
Cc1cc(=O)n(CC(=O)Nc2ccc(Br)cc2)c(N2CCOCC2)n1	-12%
COc1ccc(CNC(=O)[C@@H]2COCC(=O)N2Cc2ccc(OC)c(OC)c2)cc1	-5%
COCCOC(=O)C1=C(C)N=C2SC=C(CC(=O)NCc3ccco3)N2C1c1ccccc1OC (stereo not drawn)	-18%
CNc1cc(C)nc(N2CCN(Cc3cccc(OC)c3)C(CCO)C2)n1 (stereo not drawn)	2%
O=C(Cc1cccc(F)c1)NCc1nnc2ccc(-c3ccc(F)cc3)nn12	3%
Cc1nc([C@@H]2CN(C(=O)Cc3cccnc3)C[C@H]2C(N)=O)n[nH]1	4%
CC(=O)Nc1ccc2c(c1)nc1n2[C@@H](CNC(=O)c2ccccc2)COC1	0%[70.6 µM]
COc1ccnc(-c2nnc3ccc(N(C)c4ccccc4)nn23)c1	-13%[70.6 µM]
CCCCC(=O)NC1CCN(c2cnn(Cc3ccccc3)c(=O)c2)CC1	5%
O=[S+]([O-])(c1cccs1)N1CCc2nc(-c3ccc(Cl)cc3)nc(-c3ccccc3)c2C1	1%
Cc1ccc(CNC(=O)C2Cn3cccc3C(=O)N2)o1 (stereo not drawn)	-3%
COc1cccc(-c2cc3c(=O)n(CCNC(=O)Cc4ccccc4C)ccn3n2)c1	-26%
CN(C)C[C@@H]1CN(Cc2ccccn2)C[C@H]1NC(=O)c1ccc(Cl)cc1	1%
Cc1nc2c(c(-c3ccc(Cl)cc3)n1)CCN(C(=O)c1ccccc1C)CC2	-5%
O=C(NC[C@H]1Cn2c(-c3ccc(F)cc3)cnc2CO1)c1cccnc1	-3%[70.6 µM]
CNC(=O)[C@@H]1CN(C(=O)c2n[nH]c3ccccc23)C[C@H]1c1n[nH]c(C)n1	0%
CN(Cc1ccccc1)Cc1cn([C@H]2CO[C@H]3[C@@H]2OC[C@@H]3NS(=O)(=O)Cc2ccccc2)nn1	-2%
CN(Cc1cncs1)C1CCCc2ccccc21 (stereo not drawn)	2%[70.6 µM]
C[C@@H](NC(=O)C1CCCCC1)c1onc(-c2ccc(Cl)cc2)c1C(=O)O	-2%[70.6 µM]

A second format for part of the listing above.
| canonical_smiles | NPR1 antag |
| --- | --- |
| Cc1nc2c(c(-c3ccc(Cl)cc3)n1)CCN(C(=O)c1ccccc1C)CC2 | -5% |
| O=C(NC[C@H]1Cn2c(-c3ccc(F)cc3)cnc2CO1)c1cccnc1 | -3%[70.6 µM] |
| CNC(=O)[C@@H]1CN(C(=O)c2n[nH]c3ccccc23)C[C@H]1c1n[nH]c(C)n1 | 0% |
| CN(Cc1ccccc1)Cc1cn([C@H]2CO[C@H]3[C@@H]2OC[C@@H]3NS(=O)(=O)Cc2ccccc2)nn1 | -2% |
| CN(Cc1cncs1)C1CCCc2ccccc21 (stereo not drawn) | 2%[70.6 µM] |
| C[C@@H](NC(=O)C1CCCCC1)c1onc(-c2ccc(Cl)cc2)c1C(=O)O | -2%[70.6 µM] |

Looked up by compound from above (5):
SMILES	NPR1 antag
COc1ccc(CCNC(=O)CCn2ccn3nc4c(c3c2=O)CCCC4)cc1OC	2%
CC(C)(O)CCc1ccc(C(=O)N2CCOc3ccc(Cl)cc3C2)cc1	-9%
CN1CCOc2c(C(=O)NCCC(N)=O)cc(-c3ccccc3O)cc21	5%[70.6 µM]
CN(Cc1ccccc1)Cc1cn([C@H]2CO[C@H]3[C@@H]2OC[C@@H]3NS(=O)(=O)Cc2ccccc2)nn1	-2%
Cc1ccc(CNC(=O)C2Cn3cccc3C(=O)N2)o1 (stereo not drawn)	-3%

Continuation.
SMILES	NPR1 antag
O=C1NC2(CCN(C(=O)c3ccccc3)C2)N=C1c1cccnc1 (stereo not drawn)	0%[70.6 µM]
O=C(Nc1ccc2c(c1)OCCO2)N1CCC2(CC1)CC(Cc1nc(-c3cnccn3)no1)CCO2 (stereo not drawn)	0%
CCOC(=O)CCNC(=O)N1c2ccccc2CC1c1nc(C2CC2)no1 (stereo not drawn)	1%
O=C([C@@H]1C[C@H](Oc2ccccc2)CN1C(=O)CCc1c[nH]c2ccccc12)N1CCOCC1	1%
Cc1nc(-c2c3n(c(=O)n(CC(=O)Nc4cc(Cl)ccc4C)c2=O)CCCCC3)no1	5%
Cc1noc(C)c1-c1cc2cc(CO)oc2c(N2CCN(c3ccccn3)CC2)n1	-15%[70.6 µM]
COc1ccccc1NC(=O)N1CCc2cc(OC)c(OC)cc2C1CNC(C)=O (stereo not drawn)	-10%
O=S(=O)(c1cccc(F)c1)N1CC(c2nnc(-c3ccncc3)o2)C2(CCOCC2)C1 (stereo not drawn)	-13%
CCN1c2cc(C(=O)N3CCN(C4CCCCC4)CC3)ccc2C(=O)N2CCCCC21 (stereo not drawn)	5%
O=C(Cn1cccc1-c1nc(-c2ccccc2)no1)N1CCN(c2ccccc2)CC1	7%
O=C1CC(c2n[nH]c(C3CCOCC3)n2)CN1Cc1cccnc1 (stereo not drawn)	10%
CN(C)c1cccc(-c2cnc(Nc3cnccn3)c3c2CCO3)c1	-2%[70.6 µM]
CN(C(=O)Cn1ccn2nc(-c3ccc(F)cc3)c(CO)c2c1=O)c1ccccc1	3%
O=C(CSCC1CC1)N1CCCC(c2nccn2Cc2cccnc2)C1 (stereo not drawn)	4%
O=C(c1ncccc1F)N1CCCn2ccnc2C1c1ccccc1 (stereo not drawn)	2%
CS(=O)(=O)N1CCC(C2CCN(C(=O)c3ccn[nH]3)C2)CC1 (stereo not drawn)	11%
Cc1ccc(-n2nc(C)c([C@@H]3C=C[C@@H](NC(=O)NCc4ccccc4)C3)c2C)cc1Cl	?
CC(C)NC(=O)[C@@H]1C[C@H](N)CN1C(=O)c1ccc(-n2cnnn2)cc1	0%
COCC1CN(C(C)=O)CC12CCN(Cc1ccc(F)c(F)c1)CC2 (stereo not drawn)	-5%
C[C@@H]1CN(C(=O)CCc2ccc(F)cc2F)C[C@@]1(O)C1CCC1	-5%
Cc1noc(-c2ccc(OC3CN(C(=O)NCc4ccc(F)cc4)C3)cc2)n1	13µM*
Cc1ccc(NS(=O)(=O)C2CCS(=O)(=O)C2)cc1 (stereo not drawn)	2%
O=C(NC1CCN(c2cc(-c3ccc(Cl)cc3)[nH]n2)C1)c1ccccc1Br (stereo not drawn)	?
O=C(NCC1CCCO1)N1CC(c2nc(CCOCC3CCCC3)no2)C1 (stereo not drawn)	-3%
COCCN(C)C[C@@H]1CN(C(=O)c2cc(C(C)C)oc2C)C[C@@H]1CO	7%
Continuation.
SMILES	NPR1 antag
CCc1cccc(NC(=O)C2CCc3ncc(-c4ccsc4)n3C2)c1 (stereo not drawn)	-4%
CC(=O)N1CCc2nn(CC(=O)Nc3cccc(Cl)c3C)c(=O)cc2C1	0%
COc1ccc(CN2CCN3C(=O)N(c4ccccc4)C[C@H]3C2)cn1	5%[70.6 µM]
Cc1cnc(CCNS(=O)(=O)Cc2ccccc2F)n1Cc1ccccc1	-8%
Cc1cccc(CN2CCCC(CO)CCNC(=O)CC2)c1 (stereo not drawn)	6%
CC(C)c1ccc(NC(=O)C2CCN(C(=O)c3ncn4c3COC(c3ccccc3)C4)CC2)cc1 (stereo not drawn)	-23%
CN(C)c1ccc(-c2nnnn2[C@H]2CO[C@H]3[C@@H]2OC[C@H]3OC(=O)Nc2cccc(C#N)c2)cc1	-28%
Cc1ccc(C(=O)NC[C@H]2O[C@@H](CC(=O)N3CCN(c4ccc(F)cc4)CC3)[C@H](O)[C@@H]2O)cc1	-9%
COc1ccc2c(c1)CCN=C2C[C@H]1CN(C(=O)NC2CCCCC2)CC[C@H]1CC(=O)O	6%
O=C(NCc1ccccc1)NCC1CCOCC1	-6%
CC1CCC2(CC1)NC(=O)N(CC(=O)Nc1ccccc1Cl)C2=O (stereo not drawn)	5%
COC[C@@H]1CN(c2ncccn2)C[C@H]1C(=O)NCc1ccccn1	-3%
CCOc1ccc2c(n1)CCN(C(=O)C(C)C)C2	-5%
CCN1c2cc(C(=O)Nc3ccccc3F)ccc2C(=O)N2CCCC21 (stereo not drawn)	4%
Cc1nc(-c2c3n(c(=O)n(Cc4cccc(C(F)(F)F)c4)c2=O)CCCCC3)no1	3%
C#CCNC(=O)c1nc(-c2ccc(F)cc2)c2ccccn12	-12%[70.6 µM]
Cn1cccc1CN1C[C@@H](CO)[C@H](NC(=O)c2ccccc2)C1	-15%
CC(C)c1noc(-c2cccn3c(CNC(=O)C4CCCCC4)nnc23)n1	0%
Cc1ccc(C2Cn3nnc(C(=O)N4CCC(C(=O)Nc5ccc(F)cc5)CC4)c3CO2)cc1 (stereo not drawn)	-13%
CCOC(=O)c1ccccc1NC(=O)Cn1nc2n(c1=O)CCCCC2	1%
O=C1CCCN1CC1CCN(C(=O)c2ccc(N3CC[C@@H](O)C3)nc2)CC1	10%
Cc1noc(-c2ccccc2Cl)c1C(=O)NCCOc1ccccc1	3%
COCCc1noc([C@@H]2CN(Cc3cccc(F)c3)C[C@H]2CO)n1	-4%
CCN1CCCC(CN2CCC(Oc3ccccc3OC)(C(=O)O)CC2)C1 (stereo not drawn)	3%
Cc1ccc([S+](=O)([O-])N2CCC3(CC2)Cc2ccccc2NC3=O)cc1	0%
Cn1cccc1CN1CCC2(Cc3ccccc3NC2=O)C1 (stereo not drawn)	2%[70.6 µM]
CN1C(=O)C2(CCN(Cc3ccnn3C)C2)c2ccccc21 (stereo not drawn)	13%[70.6 µM]
O=C(Nc1cccc(Cl)c1)c1cnc2c(c1)N([S+](=O)([O-])c1cccnc1)CCC2	5%[70.6 µM]
Nc1nccc(N2CCCC(Cc3ccccc3F)(C(=O)O)C2)n1 (stereo not drawn)	6%

Screens deposited in PubChem BioAssay by National Center for Advancing Translational Sciences (NCATS).

The list is partial, so the mix of outcomes need not match the whole.
